ugtP null kill – growth inhibition of S. aureus ugtP deletion strain | actives 0.54% (n = 330,000) | AID 1259309 | growth inhibition, % (concentration not given with the values) | S. aureus RN4220 ugtP deletion, OD600 growth, 16 h; some inactives read as strong as hits;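 active = z-score under -3 and OD600 up to 0.15 on both plates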;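 also: plate controls were untreated wells for no effect and antibiotic for full effect; wells of about 80 µL received 100 nL stock; the first replicate is given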
BJeLR lethal – kills HRASV12-expressing BJeLR cells; actives 0.17% (n = 300,000); BJeLR (HRASV12) viability, CellTiter-Glo ATP luminescence, 48 h; reference of the scale not given here; inhibition, % (test concentration not listed);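 active = replicate mean above 50%; inconclusive = above 50% but judged a plate artefact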;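 also: 50 nL library stock added to about 25 µL; numbers are from one replicate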
Autofluor counter – compound fluorescence in toxin protease inhibitor counterscreen | AID 624483 | compound autofluorescence counterscreen, microsphere flow cytometry; stronger effect = higher value | actives 3.1% (n = 360,000) | fluorescence intensity (test concentration not listed);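 active = at least 3 SD above the mean of all compounds, about 16000 in these data; inconclusive = too few beads counted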;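 also: 100 nL of 1 mM stock went into each well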
Mtb hypoxia inh – Mtb hypoxia fluorescent reporter inhibition. M. tuberculosis hypoxia-regulated fluorescent reporter, fluorescence. fluorescence inhibition, % (no concentration beside the values). actives 0.1% (n = 300,000). AID 1159583;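 active = 35 to 45% if threefold the growth effect, above 45% if 1.5-fold the growth effect; inactive = the rest, general growth blockers included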;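 also: wells of about 50 µL received 100 nL stock; 0% = vehicle wells and 100% = reference inhibitor wells; whole bacteria with a GFP reporter of the hypoxia response; strong numbers were not always called active; many hits fall short of the cut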
PrP UTR inh – inhibition of PrP 5' UTR reporter expression; cell-based PrP 5' UTR mRNA reporter, plate reader; inhibition, % (no concentration beside the values); actives 0.35% (n = 340,000);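 active = every replicate at 50% or more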;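 also: 0 = median of the neutral control wells; tested in H4 reporter cells; numbers are from one replicate; inactives centre near -14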
Sa RN4220 lethal – S. aureus RN4220 growth inhibition. OD600, 16 h. inhibition, % (no concentration beside the values). actives 0.33% (n = 330,000). AID 1259311;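 active = z-score of -3 or lower and OD600 up to 0.18 on both plates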;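 also: plate controls were untreated cells for no effect and reference antibiotic for full effect; stock transfer was 100 nL into about 80 µL; one replicate is shown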
Mtb hypoxia inh growth – second read-out of Mtb hypoxia inh, no call of its own (marks repeat the call); growth inhibition, %; measured here: M. tuberculosis growth (absorbance);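 0% = vehicle and 100% = reference antibiotic; read after six days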
* = called active by the depositor; u = inconclusive; x = not tested or not shown.

molecule,ugtP null kill,BJeLR lethal,Autofluor counter,Mtb hypoxia inh,Mtb hypoxia inh growth,PrP UTR inh,Sa RN4220 lethal
O=C(CSc1ncn[nH]1)Nc1ccc2c(c1)OCCO2,-7,-4,23582*,9,11,-2,3.1
COC(=O)C(C(=O)OC)C(C)C(C(=O)OC)C(=O)OC,0,-3,3102,4,-9,-11,5.6
COc1ccc(-c2ccncc2)cc1OC,3,12,3394,4,0,7,3.2
CC(C)CC(NC(N)=O)C(=O)OCC(=O)NC(=O)NC1CCCC1 (stereo not drawn),16,-4,6996,11,4,5,4.3
CC(=O)c1ccc(S(=O)(=O)NC2CCCCCCC2)cc1,2,5,5802,-11,-6,6,4.6
CCOC(=O)N1CCN(C(=O)C(=O)Nc2ccc3nc4n(c(=O)c3c2)CCCCC4)CC1,-1,-3,4108,7,8,-9,-0.9
O=C(OCc1ccccc1)c1cccc(-c2nnc(-c3ccccc3)o2)c1,8,4,23216*,5,1,-28,4.5
COC(=O)c1nn(-c2ccccc2)ccc1=O,-4,4,2757,x,x,-5,0.6
CCN(Cc1ccccc1)C(=O)CCS(=O)(=O)c1cc2c(cc1Cl)NC(=O)CO2,1,1,5906,3,-2,-24,3.7
O=C(c1ccco1)N1CCCSC1=Nc1ccccc1,-8,1,21959*,-5,4,-13,-3.4
COc1cccc(NC(=O)Nc2cc(C)ccc2OC)c1,1,6,2413,-16,-6,-17,-2.7
Cn1c(-c2ccc3ccccc3n2)nc2cnccc21,-4,4,5002,x,x,-25,1.4
O=C(Cn1ncc2c([nH]c3ccccc32)c1=O)N1CCN(c2ccccc2F)CC1,-2,11,4387,8,-2,-22,2.1
O=C(CNC(=O)c1cccs1)NCC(=O)OCC(=O)c1ccccc1,7,-3,3142,13,3,-17,5.4
CC(C)NC(=O)Nc1ccc2c(c1)C(=O)N([C@H](C)CO)C[C@H](C)[C@@H](CN(C)C(=O)Nc1ccc3c(c1)OCO3)O2,10,x,3506,5,5,-17,2.0
CCOC(=O)N1CCN(S(=O)(=O)c2cc(Cl)ccc2Cl)CC1,1,2,5003,x,x,-31,2.1
CCc1nnc(NC(=O)c2ccc(-c3ccccc3Cl)o2)s1,-16,4,9399,0,13,-31,2.8
CCn1c(SCC(=O)Nc2sc(C)c(C)c2C#N)nnc1C1CC1,4,-7,4368,13,1,-13,1.2
COc1ccc(CNS(=O)(=O)c2ccc(-c3cc(C)no3)cc2)cc1,5,1,5733,-4,-3,1,5.4
O=C(CNCc1cccnc1)Nc1cc(C(F)(F)F)ccc1N1CCOCC1,-1,-17,6577,8,6,-12,3.8
COc1cccc(NC(=O)c2ccc(NC(=O)C3CC(=O)OC34CCCCC4)cc2)c1 (stereo not drawn),-1,15,4286,9,11,-7,0.4
CCOC(=O)C1CCN(Cc2cnc(NC(=O)OC)s2)CC1,19,4,u,13,0,-15,9.5
CCc1ccc(C(=O)NNC(=O)CCC2CCCCC2)cc1,-7,-6,3088,8,-6,-20,0.9
Cc1ccc(NC(=O)CCSc2nnc(C)o2)cc1,x,-4,3956,x,x,-16,x
O=C(NC1CCCC1)C1CCCN(S(=O)(=O)c2cnc[nH]2)C1 (stereo not drawn),6,-1,5333,x,x,-10,-3.0
CSc1ncccc1C(=O)OCC(=O)c1ccc[nH]1,1,x,4063,22*,54*,-16,1.2
CC(=O)NC(C)c1cc(Cl)c2ccccc2c1O (stereo not drawn),4,x,4066,1,4,-25,8.8
CCN(CC)C(=O)C[n+]1cccc(C=NO)c1,5,x,x,5,-2,x,3.7
CC[C@]12C(=O)N(C)CC(C3C(=O)N(C)C(=O)C31)N2C(=O)c1ccc(C(F)(F)F)cc1 (stereo partly drawn),-1,x,x,12,9,x,5.6
Cn1cc(Cl)c(C(=O)OCC(=O)c2ccccc2)n1,-3,-3,4085,13,-5,-22,4.1

A different layout for 2 compounds above:
The line under a structure holds: ugtP null kill, BJeLR lethal, Autofluor counter, Mtb hypoxia inh, Mtb hypoxia inh growth, PrP UTR inh, Sa RN4220 lethal
CCc1nnc(NC(=O)c2ccc(-c3ccccc3Cl)o2)s1
→ -16, 4, 9399, 0, 13, -31, 2.8
CCn1c(SCC(=O)Nc2sc(C)c(C)c2C#N)nnc1C1CC1
→ 4, -7, 4368, 13, 1, -13, 1.2

Remaining list, next part.
molecule,ugtP null kill,BJeLR lethal,Autofluor counter,Mtb hypoxia inh,Mtb hypoxia inh growth,PrP UTR inh,Sa RN4220 lethal
Cc1cc(NC(=O)CSc2ccc(-c3nc4cc(C)c(C)cc4[nH]3)cn2)no1,-14,-5,11005,-16,-6,-63,5.7
COC(=O)c1c(-c2cccnc2)csc1NC(=O)c1cc(C)on1,-8,-3,11834,-3,4,-51,8.4
CCc1ccccc1NC(=O)C1CC(c2ccc(OC)cc2)=NO1 (stereo not drawn),-3,-5,3889,0,6,-10,0.5
Nc1ccc(C(=O)NN=Cc2ccc(OC(=O)c3ccccc3Cl)cc2)cc1,11,x,x,4,1,x,3.5
CCc1nnc(NC(=O)CN2CCN(C(=O)c3ccccc3)CC2)s1,2,1,2042,-3,5,-19,5.5
CCOc1ccc(CN(C)CC(=O)Nc2ccc([N+](=O)[O-])cc2Cl)cc1,7,6,2960,-3,-9,-4,3.8
COc1ccc(CNC(=O)Nc2cccc3ccccc23)cc1,4,-7,3738,x,x,-11,-5.1
O=C(Cc1noc2ccccc12)Nc1ccc2ccccc2c1,-7,-7,21952*,2,6,-22,-7.8
COc1ccc(-c2nn(-c3ccccc3)cc2/C=C/C(=O)N(C)CC(=O)Nc2cccc(F)c2)cc1OC,7,x,3377,3,5,3,15
COc1ccc(NC(=O)CN2CCN(CC(=O)Nc3ccccc3OC)CC2)c(OC)c1,5,20,3927,-5,8,-22,0.3
COc1cc(SC)ccc1C(=O)OCC(=O)NC1CCCC1,12,7,4429,7,-3,-42,1.9
CN(C)CC(O)CN1C(=O)N(CN2C(=O)N(CC(O)CN(C)C)C(=O)C2(C)C)C(C)(C)C1=O (stereo not drawn),2,-1,3458,5,2,-20,3.6
O=C(O)c1cccc(S(=O)(=O)N2CCN(C(c3ccccc3)c3ccccc3)CC2)c1,24,x,3651,-1,0,-8,-1.6
CC1CN(CCc2ccccc2)C(C)CC1=NO (stereo not drawn),-4,x,x,-7,8,x,1.2
Cc1ccc(NC(=O)COC(=O)c2ccc(-n3cccn3)cc2)cc1C,4,x,3785,7,-2,-18,1.8
CCNc1ncnc2[nH]ncc12,3,x,3759,17,10,-48,1.8
Cc1ccc(/C=C/C(=O)NC2=NCCS2)cc1,x,14,9228,x,x,-63,x
COc1ccccc1CN=c1c([N+](=O)[O-])nn(-c2ccc3c(c2)OCCO3)n1O,13,2,2792,13,9,-31,2.5
CCc1c(Cl)nc(N)nc1Nc1ccccc1Cl,0,x,3759,-4,8,-10,3.9
COC(=O)CSc1nnc(-c2cccs2)n1-c1ccc(Cl)cc1,12,5,3360,7,4,-5,9.9
CCN(Cc1ccccc1)S(=O)(=O)CCNC(=O)c1ccccc1,x,15,5909,x,x,-3,x
CCC(C(=O)Nc1cc(C(=O)Nc2cc(C)ccn2)ccc1Cl)c1ccccc1 (stereo not drawn),8,11,7462,2,-2,-18,3.9
[O-]/C(=C(\C(=S)Nc1ccc(Cl)cc1)[n+]1ccccc1)c1ccc(OC(F)F)cc1,5,4,4215,11,11,-4,5.3
COc1ccc(NS(=O)(=O)c2cc(C(=O)N3CCN(C(C)=O)CC3)ccc2Cl)cc1,-1,1,4618,6,-2,-14,1.5
CC1(C)CC(=O)C(C=Nc2ccc(NC3=C(C#N)C(=O)CC(C)(C)C3)cc2)=C(O)C1,5,3,4880,-3,-1,-27,2.0
COc1ccc(-c2nc(NC(=O)c3ccccc3)sc2-c2ccc([N+](=O)[O-])cc2)cc1,-14,-2,2432,0,6,-32,5.7
CCC/C=C1/CCCOC(C(=O)NCc2cc(C)n(C)n2)(C(F)(F)F)C1 (stereo not drawn),x,-4,2832,x,x,-23,x
Cn1cc(C(=O)NN=C/C(Br)=C/c2ccccc2)ccc1=O,2,x,x,11,15,x,-0.3
CCc1c(C)[nH]c(C(=O)OCc2ccccc2)c1C,-17,0,2442,6,6,-17,6.5
O=C(O)CCCn1cc(NC(=O)c2cc(F)c(F)cc2Cl)cn1,4,1,3513,0,10,-23,2.5
CC1CCCCC1NC(=O)COC(=O)CNC(=O)c1cccc(F)c1 (stereo not drawn),4,5,4267,11,3,-10,1.7
CSCCC1C(=O)OC2(C)CC(C)(C)NC(=S)N12 (stereo not drawn),0,-8,4174,8,1,-2,0.5
CC(C)CCN1C(=O)C2(OCCCO2)c2cc(Cl)ccc21,16,22,4588,7,-3,-12,-6.4
O=C(NC(Cc1ccccc1)C(=O)O)C1CCCCC1 (stereo not drawn),4,7,3648,5,15,8,5.2
CC(=O)Nc1ccc(S(=O)(=O)N2CCN(C(=O)c3ncoc3-c3ccccc3C)CC2)cc1,13,-13,3154,11,4,-27,0.6
Cc1nc2ncnn2c(N2CCN(C(c3ccccc3)c3ccccc3)CC2)c1C,34,1,18747*,2,4,-17,-12
O=C(N/N=C/c1cc([N+](=O)[O-])ccc1Cl)c1cc(-c2ccccc2)nc2ccccc12,x,10,4612,x,x,-2,x
CCOC(=O)C1(CC)NC(c2ccco2)C2C(=O)N(c3ccc(C)cc3)C(=O)C21 (stereo not drawn),5,-8,7431,3,-5,-17,-2.8
CCc1ccc(CNC(=O)Cn2nc(-c3ccccc3)ccc2=O)cc1,0,-11,3229,-1,6,7,0.6
CCN(CC)C(=O)c1sc(NC(=O)Cc2cccs2)c(C#N)c1C,0,1,11638,2,10,-12,3.0
COc1ccc(-n2nnc3c(=O)n(Cc4cc(C)ccc4C)cnc32)cc1,-6,-7,17509*,3,0,-8,-0.6
CSc1ccc(/C=N/NC(=O)COc2ccc(Br)cc2Cl)cc1,x,5,2268,x,x,-21,x
CCN(CC)C(=O)Cn1cc(S(=O)(=O)CC(=O)Nc2ccc(F)cc2)c2ccccc21,-2,-3,u,-2,0,-90,0.0
COC(=O)C(Cc1ccc(O)cc1)NC(=O)c1ccc2c(c1)OCCO2 (stereo not drawn),3,-3,4170,15,0,-69,4.4
O=C(O)/C=C/C(=O)N(Cc1ccccc1)Cc1ccco1,7,-6,2234,10,6,-4,0.0
Cc1ccc(C(=O)NCC(=O)OCC(=O)c2ccc3c(c2)NC(=O)CO3)cc1,-1,-2,4293,-5,4,-14,1.5
O=C1NC2(CCCCCC2)C(=O)N1Cc1ccc(F)cc1Cl,-12,-8,5484,13,7,0,4.8
COC(=O)c1ccc(C(=O)OC)c(NC(=O)CN2CCC(C)CC2)c1,4,2,3492,-3,1,-10,14
O=c1[nH]c2ccccc2n1CCC1CCCCC1,-26,5,7910,14,17,5,13
COc1cc(OC)c2cc(C(=O)N/N=C/c3ccccc3O)[nH]c2c1,x,18,3760,x,x,16,x
Cc1cc2nc(SCC(=O)N(C)C)c3c(c2cc1C)CCCC3,18,-4,12963,7,6,-16,15
O=[N+]([O-])c1cccc(/C=N/n2c(COc3ccccc3)n[nH]c2=S)c1,x,3,16172*,x,x,-10,x
N#CC1(NC(=O)CSc2nnc(C3CC3)n2C2CC2)CCCCC1,-1,x,4008,-12,1,-5,0.8
FC(F)(F)c1cc(-c2cccs2)nc(-n2cc(Br)cn2)n1,-9,-3,4323,4,9,8,5.1
CCN(CC)S(=O)(=O)c1cccc(NC(=O)COC(=O)c2n[nH]c(=O)c3ccccc23)c1,9,4,5039,9,4,-22,5.6
COc1ccccc1NC(C)C(=O)Nc1ccc(C(C)=O)cc1 (stereo not drawn),16,0,2689,17,13,21,6.3
Cc1ccc(NS(=O)(=O)c2cccs2)c(C)c1,0,-1,3557,-4,-2,3,10
CC1(C)Cc2c(sc3nnn(CC(=O)Nc4ccccc4)c(=O)c23)CO1,3,13,4356,14,9,-12,1.4
